Assay outcomes deposited in PubChem by several laboratories.
PABP polyA inh: blocks human PABP binding to poly(A) RNA; fluorescence polarization; inhibition, % at 35 µM; actives 1% (n = 290,000);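 active means 50% or more with normal probe brightness, or confirmed in later tests; about a fifth of its hits are not listed in these tables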;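 further: calls also rest on retests at 20 µM and on dose response follow-up; controls were probe without protein and protein plus probe with vehicle; some compounds called inactive have numbers as strong as hits; many hits fall short of the cut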
HIV Env fusion: blocks HIV Env-driven cell-cell fusion. HeLa-JRFL Env/CEM21 cell fusion, luciferase. inhibition, % at 12.3 µM. actives 1.1% (n = 360,000). AID 651610;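 active means mean replicate inhibition score of at least 50 and every replicate individually at or above 50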;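 further: 0% = plate neutral controls and 100% = maraviroc near 300 nM; one replicate is shown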
Rce1 inhib: yeast Ras-converting enzyme inhibition; calls only; yeast membranes, quenched prenylated peptide cleavage fluorescence; actives 0.27% (n = 290,000); Q03530;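 active means fall in fluorescence gain of 50% or more versus controls, with final raw signal at or below 3038400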;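 further: plate controls were neutral control wells for no effect and wells lacking membranes for full effect; tested at 10 µM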
Target sequence (Q03530 whole entry, looked up): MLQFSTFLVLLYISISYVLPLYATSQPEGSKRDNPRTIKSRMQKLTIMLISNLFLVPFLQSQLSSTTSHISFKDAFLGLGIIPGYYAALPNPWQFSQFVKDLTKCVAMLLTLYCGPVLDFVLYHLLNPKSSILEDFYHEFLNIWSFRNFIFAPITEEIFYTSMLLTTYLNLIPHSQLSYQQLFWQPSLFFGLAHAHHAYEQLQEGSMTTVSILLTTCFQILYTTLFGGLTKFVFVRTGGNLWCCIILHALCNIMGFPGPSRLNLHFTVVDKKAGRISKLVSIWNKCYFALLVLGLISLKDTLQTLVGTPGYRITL
eIF4H FP inh: inhibitors of RNA binding by human eIF4H | inhibition, % at 35 µM | actives 0.94% (n = 290,000) | eIF4H fluorescence polarization binding assay | Q15056;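 active means 50% or more with normal probe brightness, or confirmed in later tests; about a fifth of its hits are not listed in these tables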;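 further: calls also rest on retests at 20 µM and on dose response follow-up; 0% = protein and probe with vehicle and 100% = probe without protein; strong numbers were not always called active; many hits fall short of the cut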
MT1-MMP act inh: MT1-MMP (human) activation inhibition. HT1080 RFP-PRO-GFP cells, GFP/RFP ratio fluorescence, overnight; percent of plate control window, DMSO zero. actives 0.061% (n = 360,000). GFP/RFP ratio change, % at 20 µM. AID 651647;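 active means GFP/RFP ratio change of at least 30% with cell ATP level not reduced by more than half and red fluorescence within 50% of control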; further: strong numbers were not always called active
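Assay system: HT1080 RFP-PRO-GFP cells | Dosing: 20 µM single dose, 1% DMSO | Incubation: Cells overnight before dosing, compound overnight, 37 °C, 5% CO2 | Evaluation: GFP/RFP fluorescence ratio | Control set: DMSO-only wells and HT1080 RFP-L50D-GFP cell wells as references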
CSC inhib: blocks cancer stem cells; actives 1.1% (n = 300,000); inhibition, % at 7.5 µM; cancer stem cell-like cells viability, luminescence;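 active means mean at 75% or more and at least half the replicates too; tested in HMLE shEcad cells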;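 further: 0% = median of negative and 100% = median of positive control wells; the first replicate is given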
Yeast UUG start: yeast start codon fidelity modulation; S. cerevisiae UUG-firefly luciferase reporter, luminescence/redox ratio; activity score, % at 18.7 µM; actives 0.13% (n = 350,000); AID 602363;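 active means replicate mean at a twofold rise or more, about +100% in these data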;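 further: firefly luciferase made from a UUG start codon reports start codon fidelity; reporter light over untreated wells divided by growth signal over untreated wells; some hits fall short of that in this replicate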
eIF4H FP inh retest: recorded beside eIF4H FP inh, whose call it bears; inhibition, %; compound at 20 µM; confirmation average;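 mean of two retest wells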
PABP polyA inh retest: also measured in PABP polyA inh; calls as there; inhibition, %; compound at 20 µM; confirmation repeats;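 mean of two retest wells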
MT1-MMP act inh RFP: also measured in MT1-MMP act inh; calls as there; RFP signal change, %; measured here: RFP expression control read;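 0 = vehicle wells; hits needed this value within 50% of zero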
Starred values were filed as active, the others as inactive; i = inactive; x = no result given.

SMILES | PABP polyA inh | HIV Env fusion | Rce1 inhib | eIF4H FP inh | MT1-MMP act inh | MT1-MMP act inh RFP | CSC inhib | Yeast UUG start | others
COc1ccc(Br)cc1C1CC(=O)N2CN(Cc3ccccc3)CSC2=C1C#N (stereo unspecified) | 14 | -13 | i | -3 | 6 | -1 | -11 | -9
O=C(CN1C(=O)NC2(CCCC2)C1=O)Nc1ccc(OC(F)(F)F)cc1 | -2 | -14 | i | 7 | 7 | 8 | x | 4
Cc1cc(C)c(S(=O)(=O)Nc2ccc3[nH]c(=O)[nH]c3c2)c(C)c1 | 0 | 0 | i | -4 | -2 | -7 | -2 | x
COc1cc2ccccc2cc1C(=O)N/N=C/c1cccnc1 | -1 | -6 | i | 3 | 0 | -2 | 34 | -7
COC(=O)C(CCSC)NC(=O)c1cc2c(n(-c3ccccc3)c1=O)CC(C)(C)CC2=O (stereo unspecified) | 5 | -11 | i | 3 | 8 | 2 | x | -2
COc1ccc(NC(=O)NNC(=O)c2cc3ccccc3cc2O)cc1 | -19 | x | i | 27 | -1 | 6 | 7 | -5
CCOC(=O)c1ccc(N2CCN(c3ccccc3F)CC2)c(NC(=O)Nc2cccc(OC)c2)c1 | -8 | 20 | i | 2 | -8 | -15 | -1 | -14
Cc1ccccc1SCC(=O)OCC(=O)NCCNC(=O)COC(=O)CSc1ccccc1C | x | 2 | i | x | 1 | 4 | 0 | -4
CC(C)OCCCNC(=O)c1ccncc1 | -3 | -17 | i | -2 | -5 | -2 | -6 | -3
Cc1ccc(C(=O)N/C(=C\c2cccs2)C(=O)NCCc2ccccn2)cc1C | -2 | -4 | i | -8 | -2 | 0 | -5 | x
CCCNC(=O)c1ccc(N2CCC3(CC2)CC(c2cccc(Br)c2)=NO3)c(NC(=O)c2ccccc2)c1 | x | -22 | i | x | 4 | 0 | 11 | -16
COc1cccc(CN2CCN(CCc3ccccc3)C(CCO)C2)c1OC (stereo unspecified) | 6 | -6 | i | -5 | 0 | 2 | 23 | x
O=C(O)C(C(=O)Oc1ccccc1)C(C(=O)O)C(=O)Oc1ccccc1 (stereo unspecified) | x | -1 | x | x | 3 | 8 | -17 | -11
COc1ccccc1-n1c(SCC(=O)Nc2cc(C)on2)nc2c(c1=O)SCC2 | -5 | -4 | i | -2 | -6 | -9 | -1 | 0
CC(OC(=O)c1ccc(Cl)cc1O)C(=O)NCCC1=CCCCC1 (stereo unspecified) | x | 8 | x | x | -1 | 3 | -15 | -21
CSCC(=O)N1CCCC(C(=O)c2cc(F)ccc2F)C1 (stereo unspecified) | 0 | 5 | i | -8 | 2 | 3 | -10 | x
Cc1cc(C(=O)NC2CCCc3c2cnn3-c2cccc(C)c2C)no1 (stereo unspecified) | 0 | 4 | i | -2 | 3 | -22 | -2 | -13
O=C(CN1CCC(C(=O)c2ccc(F)cc2)CC1)Nc1ccccc1Cl | -2 | 0 | x | 4 | -1 | -4 | -4 | -16
O=S(=O)(NCCS(=O)(=O)N1CCN(c2ccc(F)cc2)CC1)c1ccccc1 | x | 13 | x | x | 2 | -1 | x | -14
Cc1ccc2c(c1)OC(=O)CC2c1ccccc1 (stereo unspecified) | -7 | x | i | -8 | -2 | 7 | -4 | -5
O=C(NCCc1ccccc1)c1[nH]c(C(F)(F)F)nc1-c1ccccc1 | x | 7 | x | x | 0 | -7 | x | 14
Cc1noc(NS(=O)(=O)c2ccc(NC(=O)c3cc4ccccc4o3)cc2)c1C | x | 12 | x | x | 7 | -1 | -3 | -17
CCOC(=O)Cc1c(C)nc2c(-c3ccccc3)c(C)[nH]n2c1=O | 11 | -10 | i | 1 | 3 | 2 | x | -26
Cc1cccc(C(=O)Nc2cccc(-c3ccc4nncn4n3)c2)c1 | 6 | 20 | i | -4 | 1 | -4 | -11 | x
O=C(NCc1cccs1)C1CCC(CNS(=O)(=O)c2cccc3nsnc23)CC1 (stereo unspecified) | -8 | -20 | i | -6 | -2 | 0 | -5 | -11

Next section; the last five above are carried over.
SMILES | PABP polyA inh | HIV Env fusion | Rce1 inhib | eIF4H FP inh | MT1-MMP act inh | MT1-MMP act inh RFP | CSC inhib | Yeast UUG start | others
O=C(NCCc1ccccc1)c1[nH]c(C(F)(F)F)nc1-c1ccccc1 | x | 7 | x | x | 0 | -7 | x | 14
Cc1noc(NS(=O)(=O)c2ccc(NC(=O)c3cc4ccccc4o3)cc2)c1C | x | 12 | x | x | 7 | -1 | -3 | -17
CCOC(=O)Cc1c(C)nc2c(-c3ccccc3)c(C)[nH]n2c1=O | 11 | -10 | i | 1 | 3 | 2 | x | -26
Cc1cccc(C(=O)Nc2cccc(-c3ccc4nncn4n3)c2)c1 | 6 | 20 | i | -4 | 1 | -4 | -11 | x
O=C(NCc1cccs1)C1CCC(CNS(=O)(=O)c2cccc3nsnc23)CC1 (stereo unspecified) | -8 | -20 | i | -6 | -2 | 0 | -5 | -11
O=C(COC(=O)c1ccccc1O)NCc1ccccc1Cl | x | x | x | x | 5 | 2 | 10 | -13
C=CCC(Nc1ccccc1)C12C=CC(O1)C(C(=O)OC)=C2C(=O)OC (stereo unspecified) | -14 | x | i | 1 | 5 | 3 | 64 | 35
Cc1nc2sc3c(NCc4ccco4)ncnc3c2c2c1COC(C)(C)C2 | 10 | x | i | -4 | -10 | -17 | 85* | 10
Cc1cc(C)c2c(CN3CCN(CCO)CC3)cc(=O)oc2c1 | -10 | 8 | i | -1 | -2 | 3 | -7 | -6
CC(=O)c1ccc(OCC(O)CN2CCCC(C)C2)cc1 (stereo unspecified) | -1 | i | i | -1 | -6 | -1 | 22 | -16
COc1ccc(/C(N)=N/OC(=O)CCCN2C(=O)c3ccccc3C2=O)cc1OC | -10 | -6 | i | -9 | 2 | 4 | -3 | x
COc1ccc(C(C(=O)NCC2CCCO2)N(C(=O)c2snc(C(N)=O)c2N)c2ccccc2)cc1OC (stereo unspecified) | -1 | -9 | i | 2 | 0 | -1 | x | 2
O=C(Cn1c(=O)[nH]c2ccccc2c1=O)Nc1ccc2c(c1)OCO2 | 2 | -17 | i | 4 | 0 | 2 | -22 | -4
CCOCCCn1cnc2c(c1=O)c1nc3ccccc3nc1n2-c1ccccc1 | -4 | x | i | -12 | 5 | -2 | -14 | -5
Cc1ccc(S(=O)(=O)CC(=O)Nc2nc(C(C)(C)C)cs2)cc1 | -6 | -8 | i | -6 | 2 | -2 | -7 | -5
CC1(C)CN(c2cccc(Br)c2)C1=O | 8 | -11 | i | -3 | -3 | -3 | x | x
Nc1nnc(SCc2coc(-c3ccc(Cl)cc3)n2)s1 | -4 | x | i | -4 | -2 | -24 | 3 | 15
COc1ccccc1N1CCN(/N=C/c2cc(OC)c(O)c(OC)c2)CC1 | -17 | 7 | i | -2 | 3 | 6 | -7 | 0
O=C(Nc1ccc(F)c(Cl)c1)c1cc(C2CCCN(C(=O)CCc3ccccc3)C2)on1 (stereo unspecified) | x | 9 | x | x | 2 | -4 | x | -26
O=C(CSc1nnc(CNC(=O)c2ccccc2F)o1)NC1CCCC1 | 4 | 0 | i | 0 | -1 | 2 | -11 | -6
Cc1nc2c(nnn2Cc2ccccc2)c(=O)n1-c1ccccc1 | 0 | x | i | 9 | -4 | -5 | -17 | -7
CC(=O)c1cccc(NC(=O)C2CC(=O)N(C3CCCC3)C2)c1 (stereo unspecified) | x | 6 | x | x | -2 | 2 | -15 | -7
COc1cccc(C2/C(=C(\O)c3ccc4c(c3)OCCO4)C(=O)C(=O)N2Cc2cccnc2)c1 (stereo unspecified) | x | 3 | i | x | 4 | 4 | 3 | -29
CCn1c(SC(C)C(=O)Nc2ccc(N3CCOCC3)cc2)nnc1-c1ccco1 (stereo unspecified) | x | 2 | i | x | -3 | 2 | 4 | 2
O=C1C=C(c2cccc(Br)c2)C[C@@H](c2ccc(Cl)cc2)C1 | x | -21 | x | x | 2 | -1 | x | -17
CC#CC#Cc1cccc(=O)o1 | 18 | -65 | i | 21 | 7 | 2 | 47 | -2
O=C(O)CC1(C(=O)O)CCCC1 | x | 4 | x | x | -1 | 6 | x | -18
CCOC(=O)c1cccc(NC(=O)CCc2c(C)nc3ncnn3c2C)c1 | -18 | 6 | i | -2 | 2 | 8 | 6 | -9
CCOC(=O)C(C)NC(=O)C(NC(=O)C1CCC(CC)CC1)C(C)C (stereo unspecified) | 0 | -73 | i | -18 | 3 | 6 | -15 | -7
COC(=O)c1ccc(N2CCOCC2)c(NC(=O)c2ccc3c(c2)OCO3)c1 | -3 | 5 | i | -2 | 2 | 2 | -13 | -4

The list goes on:
SMILES | PABP polyA inh | HIV Env fusion | Rce1 inhib | eIF4H FP inh | MT1-MMP act inh | MT1-MMP act inh RFP | CSC inhib | Yeast UUG start | others
Cc1nc(SCC(=O)N2CCC(Cc3ccccc3)CC2)[nH]c(=O)c1C | x | 0 | i | x | 2 | -4 | 27 | 17
CNC(=O)N(O)C1N(/N=C/c2ccccc2O)C(=S)SC1(C)C (stereo unspecified) | 4 | -2 | i | -5 | 0 | 2 | -23 | x
CC(=O)O/N=C/c1c(C)c(C=O)n2ccccc12 | 55* | 8 | i | 22 | -5 | -3 | -2 | -16 | eIF4H FP inh retest=5;PABP polyA inh retest=68*
CC(C)CN1CCC(=O)N([C@H](CSc2ccc(Br)cc2)Cc2ccccc2)CC1 | 0 | 2 | i | 3 | -7 | -7 | 25 | -12
CNC(=O)C(=O)NCC(c1cccs1)S(=O)(=O)c1ccc(C)cc1 (stereo unspecified) | 3 | -5 | i | -2 | 1 | 1 | -3 | -10
S=C(NCc1cccs1)Nc1ccc(Cl)cc1 | -4 | 35 | i | -10 | -1 | -7 | 0 | -26
CCCNC(=O)N1CCN(C(c2ccccc2)c2ccccc2)CC1 | -8 | 0 | i | -7 | -3 | -1 | 6 | 2
CCOC(=O)C1(Cc2ccccc2)CCCN(Cc2ccccn2)C1 (stereo unspecified) | -11 | -8 | x | 1 | -5 | -1 | -5 | -11
CCOC(=O)c1c(-c2ccccc2)oc2cc(Br)c(O)cc12 | -4 | -7 | i | -5 | 6 | 3 | 48 | -20
O=C(CSc1nc2ncccc2[nH]1)NC1CCCC1 | -9 | i | i | -18 | 1 | 4 | -14 | -1
CCOc1ccc(C(=O)NCc2cccs2)cc1 | 7 | -43 | i | 5 | -1 | 0 | -3 | -12
Cc1ccc(S(=O)(=O)N2CCCC2)cc1C(=O)NCc1ccccn1 | -16 | -25 | i | -12 | -3 | -3 | -34 | -34
O=C(c1ccccc1)c1cncc(Br)c1 | 2 | 14 | i | 4 | 0 | -2 | -1 | x
CC(=O)N(Nc1ccccc1)c1ccccc1 | 8 | 6 | i | 0 | -4 | 1 | -5 | -9
COC(=O)/C(=C/N(C)C)C(=O)N1CCN(c2ccc(Cl)c(Cl)c2)CC1 | -7 | 11 | i | -5 | 1 | -9 | x | x
CCCCN(C)C(=O)Cc1c(OC)ccc2cc(Br)ccc12 | 24 | 27 | i | -1 | -7 | -7 | -27 | -5
O=C1CCCCC1C(Nc1ccc(Cl)cc1)c1ccccc1 (stereo unspecified) | -11 | x | i | 11 | 0 | -3 | 36 | -9
O=C(N/N=C/c1c(F)c(F)c(F)c(F)c1F)c1cc(-c2ccccc2)nc2ccccc12 | 3 | -18 | i | 0 | -1 | 1 | x | -5
FC(F)(F)c1ccc(C2[C@H]3CN(CC4CCCCC4)[C@H](c4ccccc4)C34CC2(c2cccnc2)C4)cc1 (stereo partly specified) | -8 | -10 | i | -12 | -10 | -10 | 17 | -9
COc1ccc(CNC(=O)c2cc3ccccc3o2)cc1OC | 7 | -37 | i | 2 | 2 | -14 | x | -5
CSCC[C@H](NS(=O)(=O)c1ccc(C)cc1)C(=O)N1CCC(C(=O)N[C@@H](Cc2ccc(O)cc2)C(=O)O)CC1 | 0 | x | i | -2 | 4 | 2 | -9 | -4
